Source: PubChem BioAssay
MARV entry inh: inhibitors of Marburg virus binding or entry into cells; Marburg virus pseudotype entry/binding inhibition, cell-based; control for the full effect not named in the record; many of its hits are not listed in these tables; Potency, µM (highest dose often 49.2 µM), for inactives: top-dose activity change, negative = inhibition, hits mostly inhibitors; 18,000 compounds, 6.5% hits; active means well fitted inhibition curve with a large enough effect; inconclusive means small, poorly fitted or top-dose-only effect; inactive means no such curve, though single readings can be large or run the other way; tested in HEK293 cells; note: luciferase read-out
LASV entry inh: inhibitors of Lassa virus binding or entry into cells; Lassa virus pseudotyped entry inhibition, cell-based qHTS; control for the full effect not named in the record; many of its hits are not listed in these tables; Potency, µM (doses to about 49.2 µM), without a hit: at the top dose activity change, negative = inhibition, most hits filed as inhibitors; 18,000 compounds, 4.1% hits; active = well fitted inhibition curve with a large enough effect; inconclusive = small, poorly fitted or top-dose-only effect; inactive = no such curve, though single readings can be large or run the other way; tested in HEK293 cells; note: luciferase read-out
* = called active by the depositor; [ ] = another dose, or the depositor's remark. % is set by controls: 0 for no effect and ±100 for the full control effect; potency is the fitted concentration of half-maximal effect. An excerpt (hit frequency here may not be typical).

Screening CC1(C)CCC[C@@]2(C)C1CC[C@@](C)(O)[C@@H]2CC[C@@](C)(O)C1CO1 (stereo not given in full) returned MARV entry inh 5% and LASV entry inh -7%.
Screening COc1ccc(-c2ccc(-c3cc(=O)oc4cc(C)cc(C)c34)cc2)cc1 returned MARV entry inh 26% and LASV entry inh -3%.
Screening C=C(C)C(=O)/C=C/CCC/C=C/C(=O)OCC returned MARV entry inh -3% and LASV entry inh 6%.
For Cc1cccc(CNc2cc(-c3cccc(C#N)c3)ncn2)c1 the results were MARV entry inh 13% and LASV entry inh -5%.
`C[C@@]12C=CC(=O)C=C1CCC1C2CC[C@]2(C)C(=O)CCC12` (stereo not given in full) gave MARV entry inh -24% and LASV entry inh -2%.
For O=C1OC2(c3ccc(O)cc3Oc3cc(O)ccc32)c2ccccc21 the results were MARV entry inh inconclusive and LASV entry inh inconclusive.
`CC(=O)Nc1ccccc1-c1nc(CNC(=O)c2cccc(-n3cccn3)c2)c(C)o1` gave MARV entry inh -4% and LASV entry inh inconclusive.
Screening CC(C)COC(=O)OCN1C(=O)CN(CCN2CC(=O)N(COC(=O)OCC(C)C)C(=O)C2)CC1=O returned MARV entry inh 3% and LASV entry inh -13%.
`C#CCN1C(=O)CC[C@@]23C1=NC(C(=O)OC)=C(C(=O)OC)[C@@H]2N(Cc1ccccc1)c1ccccc13` gave MARV entry inh -20%[8.59 µM] and LASV entry inh -23%[8.59 µM].
Screening CC#CCN1c2ccccc2[C@]23CCC(=O)N(CCCOC(C)C)C2=NC(C(=O)OC)=C(C(=O)OC)[C@H]13 returned MARV entry inh -12%[8.59 µM] and LASV entry inh 11%[8.59 µM].

6 compounds already listed, sorted by heavy-atom count, smallest number first:
Screening C=C(C)C(=O)/C=C/CCC/C=C/C(=O)OCC returned MARV entry inh -3% and LASV entry inh 6%.
`C[C@@]12C=CC(=O)C=C1CCC1C2CC[C@]2(C)C(=O)CCC12` (stereo not given in full) gave MARV entry inh -24% and LASV entry inh -2%.
For O=C1OC2(c3ccc(O)cc3Oc3cc(O)ccc32)c2ccccc21 the results were MARV entry inh inconclusive and LASV entry inh inconclusive.
Screening COc1ccc(-c2ccc(-c3cc(=O)oc4cc(C)cc(C)c34)cc2)cc1 returned MARV entry inh 26% and LASV entry inh -3%.
`CC(=O)Nc1ccccc1-c1nc(CNC(=O)c2cccc(-n3cccn3)c2)c(C)o1` gave MARV entry inh -4% and LASV entry inh inconclusive.
`C#CCN1C(=O)CC[C@@]23C1=NC(C(=O)OC)=C(C(=O)OC)[C@@H]2N(Cc1ccccc1)c1ccccc13` gave MARV entry inh -20%[8.59 µM] and LASV entry inh -23%[8.59 µM].

More entries follow.
Screening COC(=O)C(C(=O)OC)[C@@H]1O[C@@]23COCC[C@]2(C)[C@@H]3c2ccccc21 returned MARV entry inh 17%[8.59 µM] and LASV entry inh -9%[8.59 µM].
`NC(N)=NCC1COc2ccccc2O1` (stereo not given) gave MARV entry inh 21% and LASV entry inh 21%.
O=C(N1CCOCC1)N1[C@H](COCc2ccccc2)C=CS1(=O)=O was read as MARV entry inh 11% and LASV entry inh -1%.
Cn1ccc2c(-c3ccc(C(N)=O)cc3)cc3c(c21)C1CCC3C1 (stereo not given) was read as MARV entry inh inconclusive and LASV entry inh -23%.
For CC(=O)/C=C\C1[C@]2(C)CCCC(C)(C)C2CC[C@@]1(C)O (stereo not given in full) the results were MARV entry inh 8% and LASV entry inh 4%.
For Cn1ccc2c(-c3cccc4ccccc34)cc3c(c21)C1CCC3C1 (stereo not given) the results were MARV entry inh -28% and LASV entry inh 36%.
Screening COc1ccc([C@H]2C[C@H](n3cc(COC(=O)c4ccccc4)nn3)[C@@H](O)CN2C(=O)c2cccs2)cc1 returned MARV entry inh -10% and LASV entry inh 5%.
O=C1CCN(S(=O)(=O)c2ccccc2)CCN1CCOCc1cccc(F)c1 was read as MARV entry inh 11% and LASV entry inh -12%.
COC(=O)[C@H]1[C@H]2C[C@@H]3c4[nH]c5cc(OC)ccc5c4CCN3C[C@H]2C[C@@H](OC(=O)/C=C/c2cc(OC)c(OC)c(OC)c2)[C@@H]1OC was read as MARV entry inh 10µM* and LASV entry inh -28%[17.8 µM].
Screening CSc1nc(C(=O)N2CCOc3ccc(CN4CCN(Cc5ccccn5)CC4)cc3C2)cs1 returned MARV entry inh -2% and LASV entry inh -9%.
Screening CC(C)=CCOc1cc2oc(=O)ccc2cc1O returned MARV entry inh 1% and LASV entry inh 36%[activator].
For CN1CCN(c2cc(-c3ccccc3C(F)(F)F)ncn2)CC1 the results were MARV entry inh 3% and LASV entry inh -13%.
Screening CC(C)OC(C)C returned MARV entry inh -7% and LASV entry inh -10%.
`Cc1ncc2c(c1CNC(=O)c1ccc3c(c1)OCO3)CCN(C(=O)/C=C/c1ccccc1Cl)C2` gave MARV entry inh -9% and LASV entry inh -5%.
For Nc1c(Cl)c(Cl)c(Cl)c(Cl)c1Cl the results were MARV entry inh 18%[107 µM] and LASV entry inh -10%[107 µM].
For C=CCP1(=O)O[C@H](C=C)C[C@H](C=C)O1 (stereo not given in full) the results were MARV entry inh 38%[activator] and LASV entry inh 4%.
`Cn1c(=O)[nH]c(=O)c2[nH]cnc21` gave MARV entry inh 3% and LASV entry inh 10%.
For COc1ccc(C2/C=C\CC(NC(=O)OCC3c4ccccc4-c4ccccc43)CC(=O)N2Cc2cccc(F)c2)cc1 (stereo not given) the results were MARV entry inh inconclusive and LASV entry inh -5%.
`CC(C)(C)OC(=O)N1CCC(C(=O)Nc2ccc(C(=O)N3CCOCC3)cc2)CC1` gave MARV entry inh 28% and LASV entry inh 13%.
CSc1nc(N)c2ncn([C@H]3O[C@H](COP(=O)(O)OP(=O)(O)O)[C@@H](O)[C@@H]3O)c2n1 was read as MARV entry inh 12% and LASV entry inh -19%.
For CSc1ncnc2c1ncn2C1OC(CO)C(O)C1O (stereo not given) the results were MARV entry inh 0.5µM* and LASV entry inh 0.35µM*.
CC(=O)OC[C@H]1O[C@H](CC=NO[C@H](C)CN2CCCCc3nc(C)c(C)cc32)C=C[C@@H]1OC(C)=O was read as MARV entry inh -21%[8.59 µM] and LASV entry inh -17%[8.59 µM].
`CNC(=O)c1ncccc1Nc1nc(Nc2cc3c(cc2OC)CCCN3C(=O)CN(C)C)nc2[nH]ccc12` gave MARV entry inh 2.5µM* and LASV entry inh inconclusive.
`CCN1C[C@]2(C)CC[C@H](OC)[C@@]34[C@H]1C1(OCO[C@@]15C[C@H](OC)C1C[C@]3(O)C5[C@H]1OC)[C@@H](O)[C@H]24` gave MARV entry inh -8% and LASV entry inh 6%.
`O=C(c1cccs1)N1C[C@H](n2cc(C3CC3)nn2)[C@H](O)C[C@@H]1c1ccc(Cl)cc1` gave MARV entry inh -17% and LASV entry inh 12%.
CC(C)[C@H]1COC(c2cccc([N+](=O)[O-])c2)=N1 was read as MARV entry inh 0%[107 µM] and LASV entry inh -16%[107 µM].
Oc1ccc2c3c1O[C@H]1c4c(c5ccccc5n4Cc4ccccc4)C[C@]4(O)[C@H](C2)N(CC2CC2)CC[C@@]314 was read as MARV entry inh 11µM* and LASV entry inh 16µM*.
COC(=O)c1cncc(C=Cc2c(C)cc(O)cc2C)c1 was read as MARV entry inh inconclusive and LASV entry inh inconclusive.
CO[C@@H]1c2cc(F)ccc2C(=CCCOC(=O)CC=Cc2ccccc2)[C@H]1C was read as MARV entry inh -24%[8.59 µM] and LASV entry inh -5%[8.59 µM].
`COCC1CCCN(Cc2ccc3c(c2)CN(C(=O)c2cc(-c4ccccc4)n[nH]2)CCO3)C1` (stereo not given) gave MARV entry inh inconclusive and LASV entry inh -18%.
For CCOC(=O)CN1C(=O)[C@@]2(C[C@@H](C)C[C@@H](C)O2)c2ccccc21 the results were MARV entry inh -18%[8.59 µM] and LASV entry inh -2%[8.59 µM].
FC(F)(F)c1cccc(-c2noc(-c3cc(-c4ccccc4)c(C(F)(F)F)s3)n2)c1 was read as MARV entry inh -1% and LASV entry inh 4%.
Screening COC1=CC(=O)C(C(=O)c2ccccc2)=CC1=O returned MARV entry inh 10% and LASV entry inh -4%.
For CC(=O)Nc1cccc(-c2cc3c(c4c2ccn4C)C2CCC3O2)c1 (stereo not given) the results were MARV entry inh 8% and LASV entry inh -22%.
COC(=O)C1=C(C(=O)OC)[C@@H]2N(C)c3ccccc3[C@@]23CCC(=O)N(Cc2ccc(OC)cc2)C3=N1 was read as MARV entry inh -9%[8.59 µM] and LASV entry inh 1%[8.59 µM].
Screening CCOC(=O)C1=C(C(=O)OCC)C(C(=O)OCC)N(S(=O)(=O)C(F)(F)F)c2ccccc21 (stereo not given) returned MARV entry inh 5% and LASV entry inh -6%.
Screening Cn1ccc2c(-c3ccc(C(C)(C)C)cc3)cc3c(c21)C1CCC3O1 (stereo not given) returned MARV entry inh inconclusive.
For C[C@@H]1C=CCCO[C@]12C(=O)N(CC1CC1)c1cccc(Br)c12 the results were MARV entry inh -10%[8.59 µM] and LASV entry inh 27%[8.59 µM].
For COc1ccc2c(=O)c(-c3ccccc3)coc2c1 the results were MARV entry inh 12% and LASV entry inh 10%.
Screening CN(C)CC(C)(O)c1ccc2c(c1)CN(Cc1cccn1-c1ncccn1)CCO2 (stereo not given) returned MARV entry inh inconclusive and LASV entry inh -11%.
Screening CC(=O)N[C@@H](CC(=O)N[C@@H](CCC(=O)O)C(=O)O)C(=O)O returned MARV entry inh 3% and LASV entry inh 5%.
For O=C(Cn1cc(COc2ccc([N+](=O)[O-])cc2)nn1)c1ccc(O)cc1 the results were MARV entry inh 15% and LASV entry inh 6%.
`COC(=O)C1=C(C)N(CC2CC2)C(=NCCc2cccnc2)NC1c1ccccc1` (stereo not given) gave MARV entry inh 4%[8.59 µM] and LASV entry inh 0%[8.59 µM].
Screening NC[C@@H]1O[C@H](c2ccccc2)Cc2c1ccc(O)c2O returned MARV entry inh inconclusive and LASV entry inh -16%.
For CCCCCCN1C[C@@H](n2cc(COC(=O)c3ccccc3)nn2)[C@H](O)C[C@H]1c1ccccc1 the results were MARV entry inh 16% and LASV entry inh 17%.
Screening O[C@H]1CN(Cc2cccs2)[C@@H](c2ccccc2)C[C@H]1n1cc(C2CC2)nn1 returned MARV entry inh -18% and LASV entry inh 7%.
Screening COc1cc(OC)c2c(c1)OC(=O)CC2c1ccc2c(c1)OCO2 (stereo not given) returned MARV entry inh -1% and LASV entry inh 0%.
CC(C)c1nc2cccnc2n1C1CCN(C(=O)Cn2cccn2)CC1 was read as MARV entry inh 7% and LASV entry inh 2%.
For Cn1cc(C(=O)OCC2CCN(CCNS(C)(=O)=O)CC2)c2ccccc21 the results were MARV entry inh inconclusive and LASV entry inh 2%.
Screening CC(C)(C)C(=O)C(Oc1ccc(Cl)cc1)n1ccnc1 (stereo not given) returned MARV entry inh 1% and LASV entry inh -17%.
C=C(C(C)=O)C(O)/C=C/c1ccco1 (stereo not given) was read as MARV entry inh -10% and LASV entry inh 4%.
C=C(C)C(=O)c1ccc2c(c1)OCO2 was read as MARV entry inh -5% and LASV entry inh 0%.
For COC(=O)/C=C\C(=O)N[C@@H]1CC[C@@]2(O)[C@H]3Cc4ccc(O)c5c4[C@@]2(CCN3CC2CC2)[C@@H]1O5 the results were MARV entry inh 28µM* and LASV entry inh inconclusive.
Clc1ccc(CO[C@@H](Cn2ccnc2)c2ccc(Cl)cc2Cl)cc1 was read as MARV entry inh -24%[17.8 µM] and LASV entry inh -10%[17.8 µM].
CCCCC/C=C\C/C=C\C[C@H](O)/C=C/C=C\CCCC(=O)O was read as MARV entry inh 3% and LASV entry inh -4%.
Screening NC(=O)CC[C@H](N)C(=O)O returned MARV entry inh 11% and LASV entry inh 6%.
Cc1nc2ccccc2nc1CN1CCOc2ccc(C3(O)CCN(c4ccccc4F)CC3)cc2C1 was read as MARV entry inh -30% and LASV entry inh inconclusive.
For COCC(=O)Nc1cc(C(=O)N2CC3CCC2C3)c2c(c1)nc(-c1ccncc1)n2C (stereo not given) the results were MARV entry inh -18% and LASV entry inh 1%.
Screening Cc1c(C(=O)NCC2(c3ccccc3)CCOCC2)cnn1-c1nccc(-c2ccco2)n1 returned MARV entry inh 28% and LASV entry inh -8%.
C[C@@H]1CC2=CCCC2[C@]2(O1)C(=O)N(CC1CC1)c1cccc(Br)c12 (stereo not given in full) was read as MARV entry inh 72%[8.59 µM] and LASV entry inh -6%[8.59 µM].
Screening Cc1ccsc1C(=CCCN1CCC[C@@H](C(=O)O)C1)c1sccc1C returned MARV entry inh 10% and LASV entry inh -2%.
`Cc1ccc(OCC(O)C(C)NC(C)C)c2c1CCC2` (stereo not given) gave MARV entry inh 13µM* and LASV entry inh inconclusive.
Screening CCC1C(=O)NCCN1Cc1ccc2c(c1)CN(Cc1ccc(OC)c(OC)c1)CCO2 (stereo not given) returned MARV entry inh 0% and LASV entry inh -5%.
For O=C(C1CCCCC1)N1C[C@@H](n2cc(-c3ccc(F)cc3)nn2)[C@@H](O)C[C@@H]1c1ccccc1 the results were MARV entry inh -41%.
For Cc1cnc(-n2ncc(C(=O)N(C)CC3COCCO3)c2C2CC2)nc1-c1cccs1 (stereo not given) the results were MARV entry inh -9% and LASV entry inh 1%.
CCOc1ccc2c3c1O[C@H]1[C@@H](O)C=C[C@H]4[C@@H](C2)N(C)CC[C@@]341 was read as MARV entry inh -23% and LASV entry inh inconclusive.
Screening O=C(OC1Cc2c(O)cc(O)cc2OC1c1cc(O)c(O)c(O)c1-c1c(C2Oc3cc(O)cc(O)c3CC2O)cc(O)c(O)c1O)c1cc(O)c(O)c(O)c1 (stereo not given) returned MARV entry inh inconclusive and LASV entry inh -14%.
`COC(=O)c1ccc2c(c1)c(I)c(-c1ccc(OC)cc1)n2C` gave MARV entry inh inconclusive and LASV entry inh 0%.
